A1 inh: inhibitors of the anti-apoptotic protein A1, read as caspase activation. AID 2462. caspase activation, % (concentration not given with the values). MEF A1-2A-BIM cells, Caspase-Glo 3/7 luminescence, 3 h; percent of clofoctol response, vehicle zero. hit rate 0.066% among 330,000;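 active = over half of replicate activation scores above 10%, or exactly half above 10 with the replicate mean above 10; inconclusive = replicate mean below 10 yet half the replicates above 10; inactive = over half of replicates below 10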;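 also: wells of about 30 µL received 50 nL stock; many hits fall short of the cut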
Ecoli growth: E. coli growth inhibition. Escherichia coli growth, OD600, 23 h; active compounds read low. OD600 absorbance (concentration not given with the values). hit rate 0.21% among 330,000. AID 1053175;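 active = OD600 absorbance below the run mean of sample wells minus 3.6 SD, in any replicate, cut at about 0.56 in these data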;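 also: stock transfer was 300 nL into about 60 µL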
LANA-H2A inh: blocks KSHV LANA binding to histone H2A/H2B | cell-free LANA-H2A/H2B peptide, fluorescence polarization | inhibition, % (no concentration beside the values) | hit rate 0.6% among 320,000; in the data active = inhibition mostly above about 10%, no sharp cut-off; inactive = mostly below about 6.7%;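 also: stock transfer was 7.5 nL into about 10 µL; 0% = median of vehicle wells and 100% = median of positive control wells; one replicate is shown; the record names a cut of 25% in any replicate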
Vif TR-FRET: inhibitors of Vif binding to APOBEC3G peptide, primary screen, biochemical, TR-FRET, GST-Vif 1-94, biotin-A3G peptide, dose response retest (AID 1117319). TR-FRET GST-Vif / biotin-A3G peptide binding; higher % means a stronger effect; test concentration not given here; strong numbers were not always called active. one-dose inhibition, %; IC50 in µM for titrated hits. hit rate 0.57% among 260,000;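 active = above the screen mean plus three standard deviations and confirmed in dose response; inconclusive = results disagree or hit not tested in dose response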;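 also: Vif residues 1-94 fused to GST binding biotinylated APOBEC3G peptide 110-148; 0% = full assay without inhibitor and 100% = GST in place of GST-Vif; retest series ran down from 100 µM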
B2AR ag: activates human beta-2 adrenergic receptor causing internalization; P07550; Am2.2-beta2AR cells, FAP receptor internalization, flow cytometry; reference of the scale not given here; response, % (no concentration beside the values); hit rate 0.43% among 340,000; AID 504454;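 active = response above a set limit, near 3 SD of response in nonfluorescent compounds, cut at about 42% in these data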;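 also: stock transfer was 100 nL into about 11 µL; a reference agonist was the positive control; negative values mostly stem from fluorescent compounds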
HNF4A DNA FP: change in binding of human HNF4 alpha to DNA. P41235. HNF4a-FITC DNA binding, fluorescence polarization, 1 h. activity change, % at 10 µM. hit rate 0.3% among 360,000. AID 1224865; in the data active = activity change above about 30%, passing the limit was not always enough;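 also: controls were the assay level and a saturating level of protein; the project sought stronger binding though the title names inhibitors; some compounds called inactive have numbers as strong as hits; positive values seem to mean higher polarization but the record does not say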
Target sequence (P41235 whole entry, looked up): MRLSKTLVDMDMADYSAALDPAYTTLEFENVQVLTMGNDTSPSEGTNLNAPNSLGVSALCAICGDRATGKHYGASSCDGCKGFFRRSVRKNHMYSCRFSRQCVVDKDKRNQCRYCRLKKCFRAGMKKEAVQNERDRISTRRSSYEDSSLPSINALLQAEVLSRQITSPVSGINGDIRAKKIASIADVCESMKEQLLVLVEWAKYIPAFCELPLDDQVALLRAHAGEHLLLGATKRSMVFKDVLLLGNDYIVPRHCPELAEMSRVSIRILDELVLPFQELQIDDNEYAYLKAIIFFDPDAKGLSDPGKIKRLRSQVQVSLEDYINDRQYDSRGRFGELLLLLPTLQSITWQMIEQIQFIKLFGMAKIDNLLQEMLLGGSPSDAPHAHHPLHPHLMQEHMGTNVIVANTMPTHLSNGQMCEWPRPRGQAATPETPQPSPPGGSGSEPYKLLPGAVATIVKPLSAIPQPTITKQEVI
UCH37 inh: blocks the human deubiquitinase UCH37; inhibition, % (test concentration not listed); purified proteasome/UCH37, Ub-AMC cleavage fluorescence; Q9Y5K5; hit rate 0.33% among 330,000; AID 588478;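 active = mean of two replicates above 20%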;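 also: 0% = compound-free wells with enzyme and 100% = wells lacking proteasome; stock transfer was 100 nL into about 20 µL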
Target sequence (Q9Y5K5 whole entry, looked up): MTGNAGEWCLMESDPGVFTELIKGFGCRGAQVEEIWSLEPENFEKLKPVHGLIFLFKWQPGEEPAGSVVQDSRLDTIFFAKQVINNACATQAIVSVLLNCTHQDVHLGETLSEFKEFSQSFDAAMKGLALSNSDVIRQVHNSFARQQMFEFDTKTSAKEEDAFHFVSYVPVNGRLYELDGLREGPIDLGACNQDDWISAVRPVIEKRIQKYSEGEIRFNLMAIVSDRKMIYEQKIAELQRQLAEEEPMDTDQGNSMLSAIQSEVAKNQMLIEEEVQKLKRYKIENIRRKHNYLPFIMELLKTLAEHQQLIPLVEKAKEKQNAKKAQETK
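Assay system: Proteasome-bound UCH37. Buffer or medium: pH 7.4 Tris-HCl (50 mM) with ovalbumin, ATP-MgCl2, DTT. Incubation: 30 min preincubation with enzyme, 25 min cleavage at room temperature. Measured by: fluorescence, ex 355 nm, em 460 nm. Read-out basis: percent inhibition. Control set: wells without proteasome as full block, compound-free enzyme plus substrate as uninhibited.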
An asterisk follows results filed as active; & = joins results of further samples.

Screening CCOC(=O)N1CCN(S(=O)(=O)c2c(C)nc3scc(C)n3c2=O)CC1 returned A1 inh 0.9, Ecoli growth 0.727, LANA-H2A inh 7.0, B2AR ag 1.5, HNF4A DNA FP -1.4 and UCH37 inh -55.9.
`O=C(/C=C/c1ccccc1F)N1CCN(c2ccccn2)CC1` gave A1 inh 0.1, Ecoli growth 0.647, LANA-H2A inh 2.0, Vif TR-FRET -0.1%, B2AR ag 1.4, HNF4A DNA FP -1.2 and UCH37 inh 1.0.
CCCN(CC(=O)Nc1ccccc1C)C(=O)c1cnc(C)cn1 was read as Ecoli growth 0.698, Vif TR-FRET 10.4%, B2AR ag -1.7, HNF4A DNA FP -3.4 and UCH37 inh 3.5.
Screening Cc1ccccc1N(CC(=O)NCC1CCCO1)C(=O)C1(C)CC(=O)N=C2C=CC=CN21 (stereo unspecified) returned A1 inh 0.5, Ecoli growth 0.706, LANA-H2A inh -5.9, Vif TR-FRET -6.1%, B2AR ag -2.6, HNF4A DNA FP -2.3 and UCH37 inh -401.7.
`CN(C)c1ccc(S(=O)(=O)NCC(=O)OCC(=O)c2ccc[nH]2)cc1[N+](=O)[O-]` gave A1 inh 1.6, Ecoli growth 0.676, LANA-H2A inh 1.7, Vif TR-FRET -5.5%, B2AR ag 6.7, HNF4A DNA FP 0.0 and UCH37 inh 5.5.
Cc1cccc2c1-c1sc(C(=O)NCCCN3CCC(C)CC3)cc1CO2 was read as A1 inh 0.5, Ecoli growth 0.651, LANA-H2A inh -3.2, B2AR ag 24.4, HNF4A DNA FP 2.4 and UCH37 inh inactive.
Screening Cc1cccc(NC(=O)/C(C#N)=C/c2cccc([N+](=O)[O-])c2)n1 returned A1 inh 0.7, Ecoli growth 0.675, LANA-H2A inh -3.1, Vif TR-FRET -5.1%, B2AR ag 9.7, HNF4A DNA FP -0.5 and UCH37 inh 2.3.
For COc1ccc(C(C)=O)cc1CSc1nnc(Nc2ccccc2)s1 the results were A1 inh 1.3, Ecoli growth 0.689, Vif TR-FRET 17.4%, B2AR ag -2.6, HNF4A DNA FP 1.7 and UCH37 inh 4.0.
For CCN(CC(=O)NCCCn1ccnc1)S(=O)(=O)c1ccc(C)cc1 the results were A1 inh -0.5, Ecoli growth 0.698, LANA-H2A inh 1.9, Vif TR-FRET 0.5%, B2AR ag -5.1, HNF4A DNA FP 1.1 and UCH37 inh 1.5.
Screening Cn1cc(C(=O)O)c(-c2ccc3c(c2)OCCCO3)n1 returned A1 inh -0.3, Ecoli growth 0.663, LANA-H2A inh 6.0, B2AR ag 6.7, HNF4A DNA FP 1.5 and UCH37 inh 2.1.
CCC(C)NC(=O)c1ccc(COc2ccccc2Cl)cc1 (stereo unspecified) was read as A1 inh -0.5, Ecoli growth 0.709, LANA-H2A inh 1.1, Vif TR-FRET -2.0%, B2AR ag 1.8, HNF4A DNA FP 25.6 and UCH37 inh 2.5.
`O=[N+]([O-])c1ccc(N2N=C(c3ccco3)CC2c2ccccc2)cc1` (stereo unspecified) gave A1 inh -1.7, Ecoli growth 0.772, LANA-H2A inh -9.7, Vif TR-FRET 9.1%, B2AR ag -42.8, HNF4A DNA FP 49.9* and UCH37 inh 5.8.
CC1CCCCN1C(=O)COC(=O)CNC(=O)c1ccc(Cl)cc1Cl (stereo unspecified) was read as A1 inh 0.0, Ecoli growth 0.707, LANA-H2A inh -0.9, Vif TR-FRET -2.9%, B2AR ag 0.5, HNF4A DNA FP -0.9 and UCH37 inh 2.1.
`Cc1ccc(S(=O)(=O)N2CCN(C(=O)Cn3c(=O)cnc4ccccc43)CC2)c(C)c1` gave A1 inh -0.3, Ecoli growth 0.726, LANA-H2A inh 1.3, B2AR ag 11.4, HNF4A DNA FP -1.7 and UCH37 inh -22.0.
Screening CC(C)(C)CN1CCNC(=O)C1CC(=O)NCCN1CCCc2ccccc21 (stereo unspecified) returned A1 inh 0.4, Ecoli growth 0.699, LANA-H2A inh 4.6, Vif TR-FRET 20.1%, B2AR ag -8.6, HNF4A DNA FP 0.1 and UCH37 inh -3.2.

Reprinted from the part before: 3 entries; new compounds follow.
CC1CCCCN1C(=O)COC(=O)CNC(=O)c1ccc(Cl)cc1Cl (stereo unspecified) was read as A1 inh 0.0, Ecoli growth 0.707, LANA-H2A inh -0.9, Vif TR-FRET -2.9%, B2AR ag 0.5, HNF4A DNA FP -0.9 and UCH37 inh 2.1.
`Cc1ccc(S(=O)(=O)N2CCN(C(=O)Cn3c(=O)cnc4ccccc43)CC2)c(C)c1` gave A1 inh -0.3, Ecoli growth 0.726, LANA-H2A inh 1.3, B2AR ag 11.4, HNF4A DNA FP -1.7 and UCH37 inh -22.0.
Screening CC(C)(C)CN1CCNC(=O)C1CC(=O)NCCN1CCCc2ccccc21 (stereo unspecified) returned A1 inh 0.4, Ecoli growth 0.699, LANA-H2A inh 4.6, Vif TR-FRET 20.1%, B2AR ag -8.6, HNF4A DNA FP 0.1 and UCH37 inh -3.2.
For C#CCOc1ccc(Br)cc1/C=N/O the results were A1 inh 1.5, LANA-H2A inh 13.0, Vif TR-FRET 13.3%, B2AR ag -10.9 and HNF4A DNA FP 2.7.
Screening N=c1ccn(O)cc1CCc1ccccc1 returned Ecoli growth 0.671, Vif TR-FRET 2.9%, B2AR ag 1.1, HNF4A DNA FP 2.2 and UCH37 inh 0.5.
`O=C1NC2(CCCCCC2)N=C1c1ccc(F)cc1` gave A1 inh 0.3, Ecoli growth 0.686, LANA-H2A inh -4.4, Vif TR-FRET 8.0%, B2AR ag -5.2, HNF4A DNA FP 3.3 and UCH37 inh 0.6.
CC(=O)N1CCN(S(=O)(=O)c2ccc3c(c2)OCCO3)CC1 was read as A1 inh inconclusive, Ecoli growth 0.664, LANA-H2A inh 3.9, Vif TR-FRET 3.5%, B2AR ag 0.1, HNF4A DNA FP -3.4 and UCH37 inh 2.1.
COc1ccc(Oc2cnn(-c3ccccc3)c(=O)c2Br)cc1 was read as A1 inh -0.5, Ecoli growth 0.686, LANA-H2A inh 0.5, Vif TR-FRET -28.9%, B2AR ag 1.2, HNF4A DNA FP 2.2 and UCH37 inh 0.0.
O=C(O)c1c(-c2ccc(Cl)cc2)cn2ccccc12 was read as A1 inh 0.5, Ecoli growth 0.706, LANA-H2A inh 1.3, B2AR ag -1.0, HNF4A DNA FP 1.8 and UCH37 inh -392.6.
CCCn1c(=O)n(CC(=O)NCC2CCCO2)c(=O)c2c3c(sc21)COC(C)(C)C3 (stereo unspecified) was read as A1 inh 1.4, Ecoli growth 0.669, LANA-H2A inh -1.6, B2AR ag 7.3, HNF4A DNA FP -0.1 and UCH37 inh 4.6.
For COc1ccc(CNC(=O)CSC(=S)N2CCCC2)cc1 the results were Ecoli growth 0.584, Vif TR-FRET -1.6%, B2AR ag -10.7, HNF4A DNA FP -1.6 and UCH37 inh 1.1.
`Cc1cc(C(=O)NC2CCCc3ccccc32)c(C)o1` (stereo unspecified) gave A1 inh 0.9, Ecoli growth 0.646, LANA-H2A inh -1.4, Vif TR-FRET 9.0%, B2AR ag -2.4, HNF4A DNA FP 3.8 and UCH37 inh 0.2.
`O=C(COC(=O)c1ccc2ccccc2n1)Nc1ncc(C(F)(F)F)cc1Cl` gave A1 inh -1.2, Ecoli growth 0.631, LANA-H2A inh -8.8, Vif TR-FRET 2.6%, B2AR ag 11.4, HNF4A DNA FP 12.7 and UCH37 inh -0.5.
`CCC(C)(C)n1nnnc1C(c1ccc(OC)c(OC)c1)N1CCN(c2ccc(OC)cc2)CC1` (stereo unspecified) gave A1 inh 0.5, Ecoli growth 0.72, LANA-H2A inh -4.0, Vif TR-FRET 7.5%&12.9%, B2AR ag -5.1, HNF4A DNA FP 1.5 and UCH37 inh 5.2.
`Cc1cc(C)n(C(=O)c2ccc(Cn3nc(C)c(Br)c3C)o2)n1` gave A1 inh 0.2, Ecoli growth 0.711, LANA-H2A inh 8.1, Vif TR-FRET -2.2%, B2AR ag 2.3, HNF4A DNA FP -5.9 and UCH37 inh 3.6.
Screening CN(C)S(=O)(=O)N(CC(=O)Nc1ccc(F)c(F)c1)c1ccccc1 returned A1 inh -1.0, Ecoli growth 0.659, LANA-H2A inh 0.7, Vif TR-FRET 15.6%, B2AR ag 1.3, HNF4A DNA FP -5.1 and UCH37 inh 4.4.
For CCCC(NC(=O)CCl)c1ccccc1 (stereo unspecified) the results were A1 inh 0.5, Ecoli growth 0.647, LANA-H2A inh -9.3, B2AR ag 4.0, HNF4A DNA FP 3.8 and UCH37 inh 0.8.
CC1CCCCC1NC(=O)c1ccc(NS(=O)(=O)c2ccc3[nH]c(=O)[nH]c3c2)cc1 (stereo unspecified) was read as A1 inh 0.4, Ecoli growth 0.647, LANA-H2A inh -17.0, Vif TR-FRET 0.8%, B2AR ag 4.3, HNF4A DNA FP -0.8 and UCH37 inh 3.2.
`CC(C)C(C)NC(=O)COc1ccc(S(=O)(=O)N2CCOCC2)cc1[N+](=O)[O-]` (stereo unspecified) gave A1 inh 0.3, Ecoli growth 0.671, LANA-H2A inh -4.0, Vif TR-FRET 8.1%, B2AR ag -3.0, HNF4A DNA FP 1.8 and UCH37 inh 1.7.
CCOC(=O)c1c(C)nc2c(c1-c1ccccc1)C(=O)CC(C)(C)C2 was read as A1 inh -0.1, Ecoli growth 0.685, LANA-H2A inh 1.0, Vif TR-FRET -6.2%, B2AR ag -6.9, HNF4A DNA FP 4.2 and UCH37 inh -1.9.
Screening Cc1[nH]c2ccccc2c1C(c1ccccn1)c1c(C)[nH]c2ccccc12 returned A1 inh 1.1, Ecoli growth 0.736, LANA-H2A inh 0.8, Vif TR-FRET 6.5%, B2AR ag 8.0, HNF4A DNA FP 2.1 and UCH37 inh 5.5.
`CCOC(=O)CSc1nnc(CNC(=O)c2ccc(S(=O)(=O)N3CCOCC3)cc2)n1C` gave A1 inh -7.5, Ecoli growth 0.703, LANA-H2A inh 3.2, Vif TR-FRET -2.0%, B2AR ag 3.3, HNF4A DNA FP -4.3 and UCH37 inh 0.8.
Screening O=c1c2nnn(Cc3ccc(Cl)cc3)c2ncn1Cc1ccc(F)cc1 returned A1 inh 0.1, Ecoli growth 0.683, LANA-H2A inh 2.6, Vif TR-FRET -3.6%, B2AR ag -2.5, HNF4A DNA FP 0.5 and UCH37 inh 2.9.
O=C(Nc1ccc(/C=C/c2nc3ccccc3o2)cc1)c1cccc(C(F)(F)F)c1 was read as A1 inh -0.2, LANA-H2A inh 2.0, Vif TR-FRET 2.4%, B2AR ag 11.4, HNF4A DNA FP 0.7 and UCH37 inh -15.1.
Screening COc1ccc(CCNC(=O)CSc2nnc3ccc(-c4ccccn4)nn23)cc1OC returned A1 inh -0.2, Ecoli growth 0.623, LANA-H2A inh 1.5, Vif TR-FRET -2.7%, B2AR ag -1.4, HNF4A DNA FP 4.6 and UCH37 inh 4.6.
`COc1ccc(CN2CC(C(=O)NCCCN3CCOCC3)CC2=O)cc1` (stereo unspecified) gave A1 inh -0.6, Ecoli growth 0.722, LANA-H2A inh 5.1, Vif TR-FRET -2.6%, B2AR ag -2.3, HNF4A DNA FP 0.5 and UCH37 inh -3.7.
`Nc1nonc1OCCOCCOCCOc1nonc1N` gave A1 inh 0.2, Ecoli growth 0.677, LANA-H2A inh -4.4, Vif TR-FRET 0.5%, B2AR ag -4.5, HNF4A DNA FP 0.0 and UCH37 inh 0.9.
For COc1cccc(/C=C2\CCC(C3CCCC3)C2=O)c1OC (stereo unspecified) the results were A1 inh -1.4, Ecoli growth 0.671, LANA-H2A inh -2.2, B2AR ag 7.7, HNF4A DNA FP -0.2 and UCH37 inh 3.7.

From PubChem BioAssay
